PrP UTR inh: inhibition of PrP 5' UTR reporter expression | cell-based PrP 5' UTR mRNA reporter, plate reader | inhibition, % (test concentration not listed) | 340,000 compounds, 0.35% hits | AID 488862;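 active = every replicate at 50% or more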;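 also: 0 = median of the neutral control wells; tested in H4 reporter cells; numbers are from one replicate; inactives centre near -14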
Mtb hypoxia rep: reduces hypoxia-regulated biosensor signal in M. tuberculosis; fluorescence inhibition, % (concentration not given with the values); 300,000 compounds, 0.1% hits; M. tuberculosis hypoxia-regulated fluorescent reporter, fluorescence;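 active = 35 to 45% if threefold the growth effect, above 45% if 1.5-fold the growth effect; inactive = the rest, general growth blockers included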;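 also: wells of about 50 µL received 100 nL stock; 0% = vehicle wells and 100% = reference inhibitor wells; whole bacteria with a GFP reporter of the hypoxia response; strong numbers were not always called active; many hits fall short of the cut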
BJeLR viability: kills HRASV12-expressing BJeLR cells; BJeLR (HRASV12) viability, CellTiter-Glo ATP luminescence, 48 h; reference of the scale not given here; inhibition, % (no concentration beside the values); 300,000 compounds, 0.17% hits; AID 1554;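 active = replicate mean above 50%; inconclusive = above 50% but judged a plate artefact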;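 also: 50 nL library stock added to about 25 µL; numbers are from one replicate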
ugtP null kill: growth inhibition of S. aureus ugtP deletion strain; S. aureus RN4220 ugtP deletion, OD600 growth, 16 h; some inactives read as strong as hits; growth inhibition, % (concentration not given with the values); 330,000 compounds, 0.54% hits; AID 1259309;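 active = z-score under -3 and OD600 up to 0.15 on both plates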;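 also: plate controls were untreated wells for no effect and antibiotic for full effect; wells of about 80 µL received 100 nL stock; the first replicate is given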
Bead autofluor: flagged as autofluorescent in microsphere protease counterscreen; compound autofluorescence counterscreen, microsphere flow cytometry; active compounds read high; fluorescence intensity (no concentration beside the values); 360,000 compounds, 3.1% hits;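 active = at least 3 SD above the mean of all compounds, about 16000 in these data; inconclusive = too few beads counted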;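 also: 100 nL of 1 mM stock went into each well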
Sa RN4220 lethal: kills Staphylococcus aureus RN4220; S. aureus RN4220 growth, OD600, 16 h; inhibition, % (no concentration beside the values); 330,000 compounds, 0.33% hits; AID 1259311;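 active = z-score of -3 or lower and OD600 up to 0.18 on both plates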;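 also: plate controls were untreated cells for no effect and reference antibiotic for full effect; stock transfer was 100 nL into about 80 µL; one replicate is shown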
Mtb hypoxia rep growth: further read-out of Mtb hypoxia rep, marked with its call; growth inhibition, %; measured here: M. tuberculosis growth (absorbance);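 0% = vehicle and 100% = reference antibiotic; read after six days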
Numbers without * were called inactive; ? = inconclusive; nt = not tested or not shown.

SMILES	PrP UTR inh	Mtb hypoxia rep	Mtb hypoxia rep growth	BJeLR viability	ugtP null kill	Bead autofluor	Sa RN4220 lethal
CSCCC(NC(=O)c1ccccc1Cl)C(=O)N(C)Cc1cccs1 (stereo not drawn)	-13	0	3	2	-5	5638	4.4
CCCC(=O)n1nc(NCc2ccc(OC)cc2)nc1NCc1ccc(OC)cc1	-15	-12	-12	-4	27	4385	0.5
CCOC(=O)C/C(C)=N/NC(=O)C1CC1(c1ccccc1)c1ccccc1 (stereo not drawn)	-6	nt	nt	-4	nt	2557	nt
Cc1ccc(C=NNC(=S)NC2CCCCC2)o1	nt	5	5	nt	-5	nt	2.9
CC[C@]12c3[nH]c4cc(-c5ccco5)ccc4c3CCN1C(=O)[C@@H](CC(=O)NCCc1ccccn1)C[C@@H]2C(=O)N1CCN(C(=O)C2CC2)CC1	-2	-16	1	nt	-6	2925	1.2
COc1ccc(NC(=S)N2CCCN(Cc3cccc(Cl)c3)C2)cc1	-35	2	-1	0	8	5138	0.0
O=C(NC1CC(=NO)c2cc3c(cc21)OCO3)C(F)(F)F (stereo not drawn)	nt	4	9	nt	4	nt	2.4
CC(=O)c1cccc(NC(=O)CN2CCN(S(=O)(=O)/C=C/c3ccccc3)CC2)c1	-1	12	1	nt	0	6032	2.2
Cc1cc(C)c(NC(=S)N(CCc2ccncc2)C(C)C)c(C)c1	nt	2	-19	1	6	4509	5.6
CNC(=S)Nc1ccc(OCc2ccccc2)cc1	-34	nt	nt	-5	-1	4252	-2.9
O=C(c1ccc(NC(=S)Nc2ccc(Cl)c(Cl)c2)cc1)N1CCCC1	-16	4	8	-1	100*	2248	101*
CCC(c1nnnn1CCc1ccccc1)N1CCN(C(=O)c2ccco2)CC1 (stereo not drawn)	-22	12	1	-5	5	4432	-2.5
COc1ccc(OC)c(CNC(=O)C2CCN(S(=O)(=O)N3CCCCC3)CC2)c1	-5	0	3	-2	3	5435	-1.5
Cc1ccc(C)c(N2CCN(C(=O)CCc3nc(-c4ccccc4)no3)CC2)c1	-2	-10	-1	nt	-3	3604	6.0
CC(C)(C)CN1C(=O)C(=O)NCC1Cc1cccc2ccccc12 (stereo not drawn)	nt	9	-2	nt	3	nt	5.5
CS(=O)(=O)N1CCN(C(=O)c2ccc(-c3ccccc3)cc2)CC1	-18	14	14	12	-5	2765	-5.3
Cc1ccc(NC(=S)NCC2CCCO2)cc1 (stereo not drawn)	3	nt	nt	2	6	2170	3.5
CCOC(=O)Nc1ccc(S(=O)(=O)NCc2ccccc2)cc1	-10	5	2	4	0	9610	3.9
O=C(O)CC(CCc1ccccc1)OC1OC(CO)C(O)C(O)C1O (stereo not drawn)	2	nt	nt	nt	-12	5189	2.6
Cc1ccc(C(=O)NC2c3ccccc3-c3ccccc32)cc1	-9	7	6	1	3	2448	11
Cc1ccccc1CN1CCC(CNC(=O)Nc2ccc(F)cc2F)CC1	-25	6	-2	2	8	3061	2.3
NC(=O)c1cc(C(=O)Cc2ccc(Cl)cc2)c[nH]1	-35	0	3	3	11	3728	-1.8
O=C1c2ccccc2CN1CCNS(=O)(=O)c1ccc(Cl)cc1	-17	nt	nt	-2	12	2699	-6.3
OCCN1CCN(c2nnc(-c3ccccc3)c3ccccc23)CC1	-31	2	-1	-3	5	4043	-0.2
CC1=NN(c2ccccc2C)C(=O)C1	-7	12	4	nt	3	3423	2.7
Cc1ccc(NC(=O)c2ccc3nc[nH]c3c2)c(O)c1	-52	-2	8	-27	0	4633	0.0
CC(C)Cn1c(=O)c(C(=O)Nc2ccccc2S(N)(=O)=O)c(O)c2ccccc21	-8	-8	-2	5	62	11555	82
O=C(O)CSc1cc(C(=O)c2ccccc2O)cn2c(=O)c3c(-c4ccccc4)csc3nc12	-25	5	4	11	12	?	20
Cc1cc(C=NNC(N)=S)c(C)n1-c1ccc(Br)cc1	nt	nt	nt	nt	-3	nt	-2.2
CCOc1ccc(C2C(C(=O)Nc3ccc(F)cc3)=C(C)Nc3nc(CCCO)nn32)cc1 (stereo not drawn)	-6	nt	nt	8	1	5753	3.2
Cc1c(NS(=O)(=O)c2cccc3nsnc23)c(=O)n(-c2ccccc2)n1C	-12	-7	13	-3	-1	2402	2.7
CCOc1ccc(N(CC(=O)Nc2ccc(CC)cc2)S(=O)(=O)c2c(C)[nH]c(=O)[nH]c2=O)cc1	-6	-5	-5	1	3	4255	-0.2
Cc1ccc2c(c1)CCCN2C(=O)c1ccco1	-15	11	5	4	-4	22783*	2.3
COc1cccc(C=NNC(=O)c2ccncc2)c1O	-9	nt	nt	nt	4	3757	3.2
CCOC(=O)c1oc2c(c1C)/C(=N/O)CCC2	-34	nt	nt	-9	nt	4353	nt
CC(C)=C1C2CCC1C(C(=O)NCCc1ccccc1)C2C(=O)O (stereo not drawn)	-18	4	3	-10	1	2013	11
CSc1ncc(Cl)c(C(=O)Nc2ccccc2[N+](=O)[O-])n1	-16	4	7	1	2	3791	2.3
COc1ccc(OCc2nnc(SCC(=O)NCC3CCCO3)n2N)cc1 (stereo not drawn)	-8	-5	0	nt	-1	?	0.3
CC(C)c1ccc(N(CC(=O)NCCSCc2ccco2)S(C)(=O)=O)cc1	-21	9	2	-11	10	4159	2.2
Cc1csc(NC(=O)CSc2nnc3c4ccccc4nc(C(C)(C)C)n23)n1	-25	-3	6	6	1	5212	3.5
COC(=O)c1ccc(OC(=O)c2cnccn2)cc1	-16	2	1	-4	-5	4654	-2.8
COc1cccc(CN(C)C(=O)C2CSC3(C)CCC(=O)N23)c1OC (stereo not drawn)	-11	-2	-3	nt	7	3391	5.1
CN(C(=O)CSc1nnc(COc2ccccc2F)n1N)C1CCS(=O)(=O)C1 (stereo not drawn)	-8	5	3	0	2	5793	2.9
CC(=NNC(=O)c1nc2ccccn2c1C)c1ccco1	nt	11	3	nt	3	nt	8.3
O=C(c1cccs1)N1N=C(c2ccccc2)CC1c1ccc(O)cc1 (stereo not drawn)	-12	-1	-5	-1	-17	2279	3.2
Cn1c(=O)c2ncn(CC(=O)NN=C/C=C/c3ccccc3)c2n(C)c1=O	nt	0	16	nt	2	nt	3.1
Clc1ccc(COc2ccccc2-c2ccnc3ncnn23)cc1	-21	3	-7	0	-2	4763	4.1
COC(=O)CC1c2cc(F)ccc2S(=O)(=O)N1c1ccccc1 (stereo not drawn)	nt	9	6	nt	-7	nt	4.2
O=C(CN1C(=O)CSC1=O)Nc1ccccc1N1CCOCC1	-12	11	4	-2	-7	3815	7.1
CCS(=O)(=O)N1Cc2ccccc2CC1C(=O)Nc1ccc(F)cc1 (stereo not drawn)	-28	16	14	-5	4	4736	-0.2

Compound profiles (already shown). Order of screens: PrP UTR inh, Mtb hypoxia rep, Mtb hypoxia rep growth, BJeLR viability, ugtP null kill, Bead autofluor, Sa RN4220 lethal
Shown for Cn1c(=O)c2ncn(CC(=O)NN=C/C=C/c3ccccc3)c2n(C)c1=O : nt, 0, 16, nt, 2, nt, 3.1
Shown for COc1cccc(CN(C)C(=O)C2CSC3(C)CCC(=O)N23)c1OC (stereo not drawn) : -11, -2, -3, nt, 7, 3391, 5.1

New compounds follow
SMILES	PrP UTR inh	Mtb hypoxia rep	Mtb hypoxia rep growth	BJeLR viability	ugtP null kill	Bead autofluor	Sa RN4220 lethal
COc1ccc(C(=O)Nc2cccc3nc(C)ccc23)c(OC)c1	-17	-1	11	-13	0	3584	0.1
COc1cc(OC)c(C2C(C#N)=C(N)Oc3cc(C)n(CCCN4CCOCC4)c(=O)c32)cc1OC (stereo not drawn)	-31	-2	4	-13	6	4152	3.1
Cc1ccc(N=CC=C2OC(C)(C)C(C)(C)O2)cc1	-18	nt	nt	-8	nt	9563	nt
COc1ccc(S(=O)(=O)n2nc(OC(=O)c3ccncc3)cc2N)cc1	-18	14	6	-4	1	3022	0.5
CC1=C(C(=O)N2CCC3(CC2)OCCO3)C2(CCC(C)CC2)OC1=O (stereo not drawn)	-16	-3	2	-7	2	21647*	-0.8
Cc1cnc(C(=O)OCC(=O)Nc2ccc(C)c(S(=O)(=O)N3CCCCCC3)c2)cn1	-17	4	1	7	12	4079	6.0
Nc1nccnc1C(=O)OCC(=O)NCCc1ccc(S(N)(=O)=O)cc1	-11	-6	7	-3	0	nt	0.3
COc1cccc(-n2c(CNc3ccc(F)cc3)nnc2SCC(N)=O)c1	-11	6	13	-3	-4	6099	4.7
O=C(Nc1ccc(Cl)cc1)Nc1ccc2c(c1)N1CCN=C1S2	4	1	-8	-4	-43	6509	-4.4
Cc1nc2ccccc2c(=O)n1NC(=O)c1ccc(Cl)c([N+](=O)[O-])c1	-4	-13	4	-5	-7	3878	5.5
CCc1ccc2nc(SCC(=O)N(CC)CC)c(C#N)cc2c1	-24	nt	nt	12	5	2908	2.2
O=C(O)c1ccccc1S(=O)CCO (stereo not drawn)	-19	-2	4	1	-1	22978*	-1.5
Cc1cc(SCC(=O)N(C)c2c(N)n(Cc3ccccc3)c(=O)[nH]c2=O)nc2ccccc12	-12	3	1	9	3	4192	5.1
CCc1cc2c(COC(=O)c3cccc(NS(C)(=O)=O)c3)cc(=O)oc2cc1O	-18	3	7	-3	-20	3606	3.2
CCC(=O)c1ccc2ncccc2c1	-10	3	16	-7	5	2219	1.6
COc1ccccc1N1CCN(c2nc3ccccn3c(=O)c2C=O)CC1	-29	5	5	5	-1	3510	11
Cn1c(CC(=O)Nc2ccc(Cl)c(Cl)c2)n[nH]c1=S	5	4	5	nt	2	3483	3.6
COC(=O)c1cc(S(=O)(=O)NCc2ccc(F)cc2)cn1C	4	nt	nt	2	5	5981	-1.6
CCOC(=O)c1nnc(-c2ccc(C)cc2)nc1N1CCSCC1	1	15	4	-5	8	1993	2.6
CC(C)(C)S(=O)(=O)c1cnc(N2CCCC2)nc1N	-3	-4	10	0	0	5794	2.1
CC(CN1CCOCC1)OC(=O)Cc1ccccc1 (stereo not drawn)	-8	-8	-2	-3	2	4447	4.0
O=C(Sc1nnc(-c2ccccc2)o1)N1c2ccccc2Sc2ccccc21	-47	13	8	4	28	10714	16
Oc1cccc(Nc2ccccc2)c1	-11	11	6	nt	-2	4952	5.2
C/C(=N\NC(=O)c1cccc2ccccc12)c1ccccn1	14	nt	nt	79*	nt	6609	nt
CCc1cc2c(-c3ccccc3)cc(=O)oc2cc1OCC(=O)NCC1CCC(C(=O)O)CC1 (stereo not drawn)	-15	nt	nt	-6	9	4390	7.1
COc1ccc(C(=O)c2coc(-c3ccccc3C(=O)O)c2C(=O)O)cc1	-34	-3	-2	6	-1	7394	3.4
O=C(NCCc1c[nH]c2ccccc12)C1CCN(c2nnc(N3CCCC3=O)s2)CC1	-3	-2	9	nt	6	2899	8.6
CC(C)(C)c1ccccc1OCC(=O)NCCCn1ccnc1	-14	-11	2	-2	2	5779	4.0
O=S1(=O)CC2SC(=S)N(c3ccccc3)C2C1 (stereo not drawn)	nt	6	0	-3	11	nt	-0.1
COC(=O)c1cccc(CSc2nc3ccccc3[nH]2)c1	-62	-3	11	0	-4	2562	-2.2
O=C(CSc1nnc2ccc3ccccc3n12)N1CCOCC1	-27	3	2	-8	3	10255	5.0
O=c1c2ccccc2nc(SCc2ccccc2)n1CC1CCCO1 (stereo not drawn)	-25	13	12	-3	18	nt	2.2
COCCCNc1ccc([N+](=O)[O-])cc1C(=O)Nc1cccc(C)n1	-18	-3	1	10	4	4206	8.2
O=C(O)c1ccc(NC(=O)c2ccco2)c(NC(=O)c2ccco2)c1	-7	10	12	-1	6	3597	-1.4
Cc1ccc(NC(=O)CCn2nnc3ccccc32)cc1	-45	5	10	8	7	4581	4.3
O=C(c1cc(Cl)ccc1O)N1CCN(S(=O)(=O)c2cccs2)CC1	-9	-11	1	2	-1	5497	3.0
COc1ccc(-c2nn(-c3ccccc3)cc2/C=C/C(=O)OCC(=O)Nc2cccc(C#N)c2)cc1	-27	5	8	-12	-19	2483	-4.2
Cc1ccccc1-n1nnnc1Sc1nnnn1-c1ccccc1	-5	8	12	nt	-8	3503	8.8

Shown with each value named: part of the list above
SMILES: O=C(O)c1ccc(NC(=O)c2ccco2)c(NC(=O)c2ccco2)c1
  PrP UTR inh = -7 | Mtb hypoxia rep = 10 | Mtb hypoxia rep growth = 12 | BJeLR viability = -1 | ugtP null kill = 6 | Bead autofluor = 3597 | Sa RN4220 lethal = -1.4
SMILES: Cc1ccc(NC(=O)CCn2nnc3ccccc32)cc1
  PrP UTR inh = -45 | Mtb hypoxia rep = 5 | Mtb hypoxia rep growth = 10 | BJeLR viability = 8 | ugtP null kill = 7 | Bead autofluor = 4581 | Sa RN4220 lethal = 4.3

Screening data: PubChem, several laboratories
